Mtb hypoxia rep – Mtb hypoxia fluorescent reporter inhibition. M. tuberculosis hypoxia-regulated fluorescent reporter, fluorescence. fluorescence inhibition, % (no concentration beside the values). actives 0.1% (n = 300,000);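 active means 35 to 45% if threefold the growth effect, above 45% if 1.5-fold the growth effect; inactive means the rest, general growth blockers included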;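 further: wells of about 50 µL received 100 nL stock; 0% = vehicle wells and 100% = reference inhibitor wells; whole bacteria with a GFP reporter of the hypoxia response; strong numbers were not always called active; many hits fall short of the cut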
ugtP null kill – kills S. aureus RN4220 lacking UgtP | S. aureus RN4220 ugtP deletion, OD600 growth, 16 h; some inactives read as strong as hits | growth inhibition, % (concentration not given with the values) | actives 0.54% (n = 330,000) | AID 1259309;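 active means z-score under -3 and OD600 up to 0.15 on both plates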;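 further: plate controls were untreated wells for no effect and antibiotic for full effect; wells of about 80 µL received 100 nL stock; the first replicate is given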
RN4220 kill – S. aureus RN4220 growth inhibition; inhibition, % (no concentration beside the values); actives 0.33% (n = 330,000); OD600, 16 h; AID 1259311;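 active means z-score of -3 or lower and OD600 up to 0.18 on both plates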;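 further: plate controls were untreated cells for no effect and reference antibiotic for full effect; stock transfer was 100 nL into about 80 µL; one replicate is shown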
PrP 5UTR inh – suppresses PrP 5' UTR mRNA reporter expression; cell-based PrP 5' UTR mRNA reporter, plate reader; inhibition, % (test concentration not listed); actives 0.35% (n = 340,000); AID 488862;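 active means every replicate at 50% or more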;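 further: 0 = median of the neutral control wells; tested in H4 reporter cells; numbers are from one replicate; inactives centre near -14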
BJeLR lethal – BJeLR cell viability loss. BJeLR (HRASV12) viability, CellTiter-Glo ATP luminescence, 48 h; reference of the scale not given here. inhibition, % (no concentration beside the values). actives 0.17% (n = 300,000). AID 1554;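 active means replicate mean above 50%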;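 further: 50 nL library stock added to about 25 µL; numbers are from one replicate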
Bead autofluor – counter-screen for toxin protease inhibitors: compound fluorescence. actives 3.1% (n = 360,000). compound autofluorescence counterscreen, microsphere flow cytometry; stronger effect = higher value. fluorescence intensity (test concentration not listed);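 active means at least 3 SD above the mean of all compounds, about 16000 in these data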;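 further: 100 nL of 1 mM stock went into each well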
Mtb hypoxia rep growth – second read-out of Mtb hypoxia rep, no call of its own (marks repeat the call); growth inhibition, %; measured here: M. tuberculosis growth (absorbance);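 0% = vehicle and 100% = reference antibiotic; read after six days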
* hit, by the source's call; . = no result given; & = joins results of further samples.

| mol | Mtb hypoxia rep | Mtb hypoxia rep growth | ugtP null kill | RN4220 kill | PrP 5UTR inh | BJeLR lethal | Bead autofluor |
| --- | --- | --- | --- | --- | --- | --- | --- |
| Cc1[nH]c2ccccc2c1C(C[N+](=O)[O-])c1cccc(O)c1 (configuration not stated) | 14 | 10 | 6 | 0.5 | -19 | 5 | 4115 |
| O=C1NCCOC(=O)C(Cc2ccc(F)cc2)CC=CCC1CC(=O)N(CCO)Cc1ccccc1 (configuration not stated) | 7&-9 | 18&1 | 5&2 | 4.8&4.2 | . | . | . |
| CC(C)(C)NC(=O)C[C@H]1C[C@H](C(=O)N2CCOCC2)[C@@]2(C)c3[nH]c4ccc(Cl)cc4c3CCN2C1=O | 0 | 8 | -5 | 4.6 | -21 | . | 4056 |
| CCOC1OC(C(=O)N2CCN(C)CC2)=CC(C2CC2)C1CCCO (configuration not stated) | 9 | 5 | -11 | 0.3 | . | . | . |
| Cc1ccccc1CN1[C@@H](Cc2ccccc2)COCCS1(=O)=O | . | . | . | . | 11 | -3 | 3555 |
| CCN(CCO)c1ccc(N=Cc2c(O)n(C)c(=S)[nH]c2=O)cc1 | 4 | 12 | 0 | 1.7 | . | 0 | . |
| O=C(CCn1c(=S)[nH]c2ccccc2c1=O)N1CCCCC1 | 5 | -1 | 8 | 3.2 | -15 | -10 | 4410 |
| O=C(NCc1ccc2c(c1)OCO2)C1CCN(Cc2cnn(-c3ccccc3)c2-n2cccc2)CC1 | -9 | 10 | 8 | 9.5 | -15 | -9 | 2920 |
| O=c1c2[nH]c3ccc(F)cc3c2nc2n1CCCS2 | 16 | 9 | -7 | 2.8 | -29 | 1 | 4654 |
| Cc1ccc(-c2nnc(N(C)C(=O)c3cccnc3)s2)cc1 | 0 | -3 | -4 | -3.2 | -47 | 7 | 3813 |
| O=C(O)/C=C/c1cn(-c2ccccc2)nc1-c1ccccc1 | -9 | -5 | -4 | 7.4 | -15 | 7 | 3747 |
| COc1ccc(/C=C2\Oc3cc(OC(=O)N4CCOCC4)ccc3C2=O)cc1 | 2 | 10 | -1 | -0.7 | -27 | 3 | 5394 |
| O=C(CSc1nnnn1C1CCCC1)N1CCN(C(=O)c2ccco2)CC1 | 15 | 3 | 8 | 1.8 | -36 | 2 | 7885 |
| Cc1ccccc1Nc1nc(=O)c2cc([N+](=O)[O-])ccc2s1 | 13 | 4 | -7 | 6.3 | -10 | -9 | 2820 |
| O=S(=O)(NCC(c1cccnc1)N1CCN(c2ccccc2F)CC1)c1cccs1 (configuration not stated) | -3 | 6 | 4 | -12 | -32 | -6 | 6701 |
| CCN(CC(=O)Nc1ccc2c(c1)OCCO2)C(=O)CSCC(=O)Nc1ccc(C)cc1 | 14 | 10 | 3 | 1.0 | -13 | 1 | 4894 |
| COc1ccc(OC)c(Nc2nc3ccc(C)cc3n3cnnc23)c1 | -22 | -3 | -16 | 0.9 | -49 | 4 | 3648 |
| CC(=O)Nc1ccc(NC(=O)COC(=O)c2ccccc2C(=O)c2ccccc2)cc1 | -7 | 6 | -3 | 1.7 | -5 | . | 5731 |
| CCOC(=O)Nc1cc(Br)c2c(c1)OCCO2 | -3 | 3 | -6 | -3.4 | -17 | -2 | 9261 |
| COc1ccc(-c2cc(C(=O)O)nc3ccc4ccccc4c23)cc1OC | 9 | 9 | 2 | 0.6 | -12 | -16 | 3074 |
| Cc1cccc(NC(=O)C2CCCN2C(=O)OCc2ccccc2)c1 (configuration not stated) | 4 | 1 | 5 | 5.3 | -7 | . | 5456 |
| CCc1nc(SCC#N)c(C#N)cc1C | 10 | 0 | 2 | 2.2 | . | 1 | . |
| COc1ccc2cc(CN(CCCN3CCOCC3)Cc3nnnn3C3CCCCC3)c(=O)[nH]c2c1 | -2 | -1 | -3 | -0.3 | -10 | -13 | 8482 |
| CC(Cc1ccccc1)[N+]([O-])=Cc1ccc(C(F)(F)F)cc1 (configuration not stated) | 25 | 21 | -5 | 3.9 | . | . | . |
| O=C(NC(=S)N(Cc1ccccc1)c1ccccn1)C1CC1 | 1 | 12 | 3 | 2.8 | 3 | 4 | 2212 |
| CCCCCOc1ccc(CSc2n[nH]c(C)n2)cc1 | -7 | 10 | 9 | -1.5 | -35 | 1 | 4741 |
| COCc1c(C(=O)OCc2c(C)noc2C)oc2ccccc12 | -1 | 7 | 0 | 0.6 | -12 | 19 | 4002 |
| CCc1nnc(NC(=O)CSc2nc(-c3ccc(F)cc3)cc(-c3ccccc3)c2C#N)s1 | 1 | 7 | -8 | 6.0 | -23 | . | 2505 |
| Cc1cc(C)c(CSc2ncc(-c3ccc([N+](=O)[O-])cc3)[nH]2)c(C)c1 | . | . | 8 | 47 | -9 | 5 | 2875 |
| Cc1nn(-c2ccccc2)c(C)c1NC(=O)COC(=O)c1cc([N+](=O)[O-])ccc1NCCO | 2 | -2 | 5 | 0.3 | -13 | 1 | 5662 |

Given with values under each structure: part of the list above
Values run as follows: Mtb hypoxia rep, Mtb hypoxia rep growth, ugtP null kill, RN4220 kill, PrP 5UTR inh, BJeLR lethal, Bead autofluor
CC(Cc1ccccc1)[N+]([O-])=Cc1ccc(C(F)(F)F)cc1 (configuration not stated)
  25, 21, -5, 3.9, ., ., .
Cc1nn(-c2ccccc2)c(C)c1NC(=O)COC(=O)c1cc([N+](=O)[O-])ccc1NCCO
  2, -2, 5, 0.3, -13, 1, 5662

(continued)
| mol | Mtb hypoxia rep | Mtb hypoxia rep growth | ugtP null kill | RN4220 kill | PrP 5UTR inh | BJeLR lethal | Bead autofluor |
| --- | --- | --- | --- | --- | --- | --- | --- |
| CCCOC(=O)CSC1=C(C#N)C(c2ccccc2Cl)CC(=O)N1 (configuration not stated) | 7 | 2 | -5 | 3.6 | -8 | 4 | 6274 |
| COCC(C)n1c(C)cc(C(=O)CSc2nnc(N)s2)c1C (configuration not stated) | -1 | -4 | -15 | 4.4 | -11 | 14 | 2571 |
| CCCCc1nc(S(=O)(=O)c2ccc(Cl)cc2)c(N2CCOCC2)o1 | . | . | 4 | 3.0 | -23 | 5 | 3061 |
| Cc1ccsc1/C=N/NC(=O)c1cc(-c2ccncc2)nc2ccccc12 | . | . | . | . | 36 | 35 | 2467 |
| O=C(Nc1nc2ccccc2s1)c1cc(-c2ccccc2)nn1-c1ccccc1 | 4 | 7 | 4 | 11 | -27 | 2 | 10772 |
| CCN(CC)CCNC(=O)c1ccc(NC(=O)c2cc(-c3ccco3)nc3ccccc23)cc1 | 7 | 3 | 0 | 0.0 | -25 | 9 | 7524 |
| CN(C)C(=O)CN1C(=O)NC2(CCc3ccccc32)C1=O (configuration not stated) | 1 | 0 | 12 | -1.5 | -6 | 1 | 5479 |
| CC(C)N1C2OC(C3OC4C(O3)N(C(C)C)S(=O)(=O)N4C(C)C)OC2N(C(C)C)S1(=O)=O (configuration not stated) | 1 | -4 | 1 | 1.9 | 3 | 1 | 23341* |
| O=C1NC(=O)C(=Cc2ccc3c(c2)OCO3)C(=O)N1 | 0 | 0 | 1 | 2.1 | . | -7 | . |
| Cc1ccccc1OCC1CN(CN2CCOCC2)C(=O)O1 (configuration not stated) | . | . | 8 | 3.5 | -5 | 2 | 4095 |
| COC(=O)c1cn(C)c2ccc(S(=O)(=O)N3CCCCC3)cc2c1=O | -3 | 3 | 4 | 1.2 | -9 | 4 | 10870 |
| COc1ccc(-c2csc(NC(=O)CN3C(=O)C4CC=CCC4C3=O)n2)cc1OC (configuration not stated) | 8 | 5 | 14 | -2.6 | -26 | -11 | 5283 |
| COc1ccc(-n2c(SCC(=O)Nc3ccc(Cl)cc3)nc(O)c(Cc3ccccc3)c2=O)cc1 | 1 | 4 | 14 | 0.8 | -12 | 0 | 4233 |
| O=C(COC(=O)c1cc(S(=O)(=O)N2CCOCC2)cs1)c1ccccc1 | -2 | 1 | 11 | 5.5 | -8 | . | 15033 |
| O=C(CSc1nnc(-c2ccc(NS(=O)(=O)c3ccccc3)cc2)o1)NCC1CCCO1 (configuration not stated) | . | . | 3 | -1.2 | 3 | 0 | 3539 |
| O=C(O)COc1ccccc1/C=N/NC(=O)CSc1nc2ccccc2c(=O)n1-c1ccccc1 | . | . | . | . | 1 | 1 | 4490 |
| CCn1cc(Cl)c(C(=O)Nc2cc(C(=O)OC)cc(C(=O)OC)c2)n1 | 5 | 5 | 0 | -3.2 | -23 | 20 | 3838 |
| C=CCN1c2ccccc2[C@]23CC(C(=O)OC)N(C(=O)NC4CCCC4)C2=NC(C(=O)OC)=C(C(=O)OC)C13 (some centres not stated) | -9 | 14 | 6 | -4.2 | . | . | . |
| O=C(Cc1ncc(C(F)(F)F)cc1Cl)N1CCN(c2cccc(Cl)c2)CC1 | 2 | 10 | -8 | -0.3 | -14 | 4 | 9274 |
| COc1cccc(C(=O)NC2CC3CCCC(C2)N3CC(=O)Nc2ccccc2C(F)(F)F)c1 (configuration not stated) | -11 | -2 | -13 | -2.4 | -2 | 5 | 2978 |
| Cc1cc(C2(c3ccc(O)c(C)c3)C(=O)N(C)c3ccc(Br)cc32)ccc1O | -5 | 4 | 9 | -9.3 | -7 | -1 | . |
| O=C(CCC1CCCC1)N1CCC(N2CCN(c3ccccc3)CC2)CC1 | 14 | 6 | -2 | 2.4 | -14 | -4 | 9954 |
| C=CCn1cccc(/C=C/C(=O)c2ccc(C(C)(C)C)cc2)c1=S | 2 | 19 | 2 | -3.6 | -36 | 0 | 2571 |
| Cc1nn(Cc2ccccc2)c(C)c1NC(=O)CCC(=O)O | 6 | 3 | -1 | -7.4 | 2 | -2 | 2392 |
| CCOc1ccc(OCCC(=O)Nc2cccc(S(=O)(=O)N3CCCC3)c2)cc1 | 1 | -11 | 6 | -0.2 | -23 | . | . |
| CCn1c(CC(=O)Nc2ccc(C)c(Cl)c2)nnc1SCc1ccc(Cl)c(Cl)c1 | -3 | -5 | -12 | -2.6 | -24 | 1 | 10229 |
| COc1ccc(/C=N/Nc2nc3ccccc3s2)cc1O | . | . | . | . | 1 | -2 | 4113 |
| C=CCSc1nc2sc3c(c2c(=O)[nH]1)CCC3 | -4 | -5 | -1 | 5.6 | -25 | -3 | 2130 |
| CCCn1c(C)cc(C(=O)COC(=O)c2ccc(Cl)c(S(=O)(=O)N3CCCC3)c2)c1C | . | . | 5 | -1.1 | -4 | -4 | 2780 |
| CN(C)C(=O)CCSc1nnc(-c2ccncc2)o1 | 15 | 0 | 5 | 12 | -18 | 7 | 4740 |

As entered above.
COc1ccc(OC)c(Nc2nc3ccc(C)cc3n3cnnc23)c1 in ugtP null kill = -16
Cc1[nH]c2ccccc2c1C(C[N+](=O)[O-])c1cccc(O)c1 (configuration not stated) in BJeLR lethal = 5
CCOC(=O)Nc1cc(Br)c2c(c1)OCCO2 in Mtb hypoxia rep growth = 3

(further entries)
| mol | Mtb hypoxia rep | Mtb hypoxia rep growth | ugtP null kill | RN4220 kill | PrP 5UTR inh | BJeLR lethal | Bead autofluor |
| --- | --- | --- | --- | --- | --- | --- | --- |
| CCOC(=O)C#CC(CCc1ccccc1)OS(N)(=O)=O (configuration not stated) | 5 | 9 | 0 | 9.4 | -19 | 3 | 3464 |
| Clc1ccc(-c2cn3cccnc3n2)cc1 | . | . | -1 | 1.7 | -39 | 12 | 2404 |
| O=C(Nc1cc(Br)c(O)c(Br)c1)c1cccc(NC(=O)c2ccco2)c1 | 15 | 7 | 13 | -12 | -15 | -9 | 4179 |
| CC12CC3(C)CC(C)(C1)CC(C(=O)NC(=S)N1CCCC1)(C2)C3 | 15 | 1 | -1 | 7.3 | -5 | -4 | 4837 |
| Cc1ccc(S(=O)(=O)N2CCN(C(=O)CCC(=O)NCCc3ccc(S(N)(=O)=O)cc3)CC2)c(C)c1 | 14 | 10 | 3 | 1.5 | 6 | 9 | 4814 |
| COc1ccc2c(c1)[nH]c1c(=O)n(N=Cc3ccc(OC)c(COc4ccccn4)c3)cnc12 | 0 | 1 | 11 | 0.0 | . | . | . |

In the list so far, these have a nitro group on carbon:
| mol | Mtb hypoxia rep | Mtb hypoxia rep growth | ugtP null kill | RN4220 kill | PrP 5UTR inh | BJeLR lethal | Bead autofluor |
| --- | --- | --- | --- | --- | --- | --- | --- |
| Cc1[nH]c2ccccc2c1C(C[N+](=O)[O-])c1cccc(O)c1 (configuration not stated) | 14 | 10 | 6 | 0.5 | -19 | 5 | 4115 |
| Cc1ccccc1Nc1nc(=O)c2cc([N+](=O)[O-])ccc2s1 | 13 | 4 | -7 | 6.3 | -10 | -9 | 2820 |
| Cc1cc(C)c(CSc2ncc(-c3ccc([N+](=O)[O-])cc3)[nH]2)c(C)c1 | . | . | 8 | 47 | -9 | 5 | 2875 |
| Cc1nn(-c2ccccc2)c(C)c1NC(=O)COC(=O)c1cc([N+](=O)[O-])ccc1NCCO | 2 | -2 | 5 | 0.3 | -13 | 1 | 5662 |

Rows are unselected; overall some 4% were active at least once.
